# Compound activity as filed in PubChem BioAssay.
# CBX7 AlphaScr: CBX7 inhibition, primary AlphaScreen; AlphaScreen His6-CBX7 / biotin-H3K27me3 peptide binding; stronger effect = lower value; normalised signal (fraction of DMSO) (concentration not given with the values); 66,000 compounds, 1.1% hits; in the data active = normalised signal below about 0.5;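 note: 100 nL library stock added to about 20 µL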
# Target sequence (O95931 whole entry, looked up): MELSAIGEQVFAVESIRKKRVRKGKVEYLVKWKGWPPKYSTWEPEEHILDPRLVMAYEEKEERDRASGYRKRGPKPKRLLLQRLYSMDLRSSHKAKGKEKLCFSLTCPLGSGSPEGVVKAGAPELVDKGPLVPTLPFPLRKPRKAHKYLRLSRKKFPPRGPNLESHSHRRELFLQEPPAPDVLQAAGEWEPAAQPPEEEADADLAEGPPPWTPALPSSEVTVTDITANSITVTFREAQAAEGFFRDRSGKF
# CBX7 AlphaScr z-score: also measured in CBX7 AlphaScr; calls as there; z-score; measured here: z-score of CBX7 signal; some inactives read as strong as hits; reference of the scale not given here;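 same signal on another scale; lower means less binding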
# An asterisk follows results filed as active. A portion of the library. The share of hits here may be higher or lower than overall.
SMILES,CBX7 AlphaScr,CBX7 AlphaScr z-score
O=C1CCc2cc(S(=O)(=O)NCc3ccccc3Cl)ccc2N1,1,0.48
CCCC(O)(CCN1CCCCC1)c1ccc(OCC)cc1 (stereo not given),1.1,1.7
Cc1ccc(-c2nnc(N3CCOCC3)c3ccccc23)cc1S(=O)(=O)N1CCOCC1,1,0.34
Nc1nonc1-c1nc2ccccc2n1CC(=O)Nc1ccccc1C(F)(F)F,1.1,1.6
COc1ccc(Nc2ncnc3sc(C)c(S(=O)(=O)N4CCOCC4)c23)cc1Cl,1,0.02
Cc1ccc(-n2c(=O)cc(N3CCN(c4ccc(F)cc4)CC3)[nH]c2=O)cc1,1,0.084
CCOc1ccc(CCNC(=O)c2cn(CC)c(=O)c3cc(OC)c(OC)cc23)cc1OCC,1.5,4
Cc1nn(Cc2ccccc2)c(C)c1NC(=O)c1cc(-c2ccc3c(c2)OCO3)on1,0.94,-0.78
CCOc1ccc(-n2cc(-c3ccccc3)c3c(Nc4cccc(F)c4)ncnc32)cc1,1,0.39
O=C(O)c1ccc2c(c1)NC(=O)C(CSCc1ccccc1Cl)N2 (stereo not given),1.2,1.4
COc1ccc(C2NCCc3cc(OC)c(OC)cc32)cc1 (stereo not given),1.1,1.8
COC(=O)CCCNC(=O)Cn1cnc2sc(C)c(C)c2c1=O,1,0.92
COc1ccc(C2=NOC(C(=O)N3CCCCCC3)C2)cc1 (stereo not given),0.98,-0.28
CCC1=Nc2cc(C(=O)NCCCN3CCCCCC3)ccc2Sc2ccc(C)cc21,0.88,-6
COc1ccc(CCNC(=O)C2c3ccccc3C(=O)N2CCc2ccccc2)cc1OC (stereo not given),1.1,0.74
CCOC(=O)C1CCN(c2c(NCCN(C)C)c(=O)c2=O)CC1,1,0.76
Cc1c(Cl)cccc1NC(=O)C1CCN(S(=O)(=O)c2cnc[nH]2)CC1,1,0.29
O=C(O)c1cccc(Nc2nc(-c3ccc(Cl)cc3)nc3ccccc23)c1,1.1,0.64
COc1ccccc1OCC(O)Cn1c(=N)n(Cc2ccccc2)c2ccccc21 (stereo not given),0.76,-3.4
CCOc1ccc(NC(=O)CSc2nc3nc(C)c(Cc4cc(C)ccc4C)c(C)n3n2)cc1,1.1,1.3
O=c1cc(N2CCN(c3ccccc3F)CC2)[nH]c(=O)n1-c1ccc(Br)cc1,0.99,-0.22
COc1cccc(NS(=O)(=O)c2ccc3[nH]cc(C(=O)NCCc4cccc(C)c4)c(=O)c3c2)c1,1.2,1.3
CC1CCN(c2oc(-c3ccccc3)nc2C#N)CC1,0.41*,-0.69*
CCOc1ccc(-c2cc(C(=O)NCCCN(C)C3CCCCC3)c3ccccc3n2)cc1,1.1,2
Cc1ccc(CN2CCN(CC(=O)NCCc3ccccc3)C2=O)cc1,0.97,-0.5
O=C(Nc1cc(F)ccc1F)C1CCCN(S(=O)(=O)c2cccc3cccnc23)C1 (stereo not given),0.89,-0.14
COc1cccc(-c2nc(CS(=O)(=O)CC(=O)NC3CCCC3)c(C)o2)c1,1,0.78
COc1cc(OC)cc(C(=O)Nc2nc3c(s2)CCc2cc(OC)ccc2-3)c1,1.1,1.5
COc1cccc(CNC(=O)C2CCCN(S(=O)(=O)c3cnc[nH]3)C2)c1 (stereo not given),1.1,3.4
Cc1onc(-c2ccccc2)c1C(=O)Nc1nnc(N(CC(C)C)CC(C)C)s1,0.97,-0.66
COCCNC(=O)CCn1nc(-c2ccc(Cl)cc2)c2ccccc2c1=O,0.97,-0.93
CCN(CC)C(=O)COc1ccc(-c2nnc(Nc3ccc(C(N)=O)cc3)c3ccccc23)cc1,0.95,-0.25
C=CCN1C(=O)CSc2ccc(C(=O)NCCN(C)Cc3ccccc3)cc21,1.2,2.3
Cc1ccc(CNC(=O)C2CCCN2S(=O)(=O)c2ccc3c(c2)n(C)c(=O)c(=O)n3C)cc1 (stereo not given),1.1,0.55
O=C(C1CCN(S(=O)(=O)c2cnc[nH]2)CC1)N1CCN(c2ccccc2F)CC1,0.92,-0.98
COc1ccc(-c2ncnn2-c2cccc(Cl)c2)cc1OC,0.97,-0.57
O=C(NCc1ccc(Cl)cc1)C1CCN(C(=O)c2sccc2-n2cccc2)CC1,0.93,-1.7
O=C(NCc1ccccn1)c1cc2c(s1)-c1ccccc1OC2,1.1,5.4
CCC(C)NC(=O)CS(=O)(=O)Cc1nc(-c2ccccc2C)oc1C (stereo not given),1.2,1.9
COc1ccc(Nc2cc(C(=O)NCCCN(C)C3CCCCC3)c3ccccc3n2)cc1,0.95,-0.047
c1ccc(-c2nc(NCCCN3CCOCC3)c3ccccc3n2)cc1,0.98,-0.2
CCOc1ccccc1Cc1nc2ccccc2[nH]c1=O,0.99,-0.45
O=C(CSc1nc2ccc(N3C(=O)c4ccccc4C3=O)cc2s1)NC1CCCCC1,1,0.9
COc1cccc(C2C(N3C(=O)c4ccccc4C3=O)C(=O)N2c2ccc(Cl)cc2)c1 (stereo not given),0.9,-2.2
CC(C)C(C(=O)Nc1nc(-c2ccc(Br)cc2)cs1)N1C(=O)c2ccccc2C1=O (stereo not given),1.1,0.72
CCN(CC)C(C(=O)NC1CCCCC1)c1ccc(Cl)cc1 (stereo not given),1.2,1.9
COc1ccc(N2CCN(Cc3nc4ccccc4c(=O)[nH]3)CC2)cc1,1,0.17
CCC(C)(C)C1CCC(=O)C(C2(O)C(=O)Nc3ccccc32)C1 (stereo not given),0.86,-1.6
Cc1c(CNCc2ccc(F)cc2)c(C(=O)O)c(C)n1Cc1ccccc1,1.1,1.7
Cc1ccc(-c2nc(C#N)c(NCc3ccccc3)o2)cc1,0.78,-2.8

# Five compounds drawn at random from the list so far:
SMILES,CBX7 AlphaScr,CBX7 AlphaScr z-score
Nc1nonc1-c1nc2ccccc2n1CC(=O)Nc1ccccc1C(F)(F)F,1.1,1.6
COc1ccccc1OCC(O)Cn1c(=N)n(Cc2ccccc2)c2ccccc21 (stereo not given),0.76,-3.4
COc1ccc(C2=NOC(C(=O)N3CCCCCC3)C2)cc1 (stereo not given),0.98,-0.28
CCN(CC)C(=O)COc1ccc(-c2nnc(Nc3ccc(C(N)=O)cc3)c3ccccc23)cc1,0.95,-0.25
CCC(C)NC(=O)CS(=O)(=O)Cc1nc(-c2ccccc2C)oc1C (stereo not given),1.2,1.9

# Single records, as listed above. Values in the order: CBX7 AlphaScr, CBX7 AlphaScr z-score
# `O=C(CSc1nc2ccc(N3C(=O)c4ccccc4C3=O)cc2s1)NC1CCCCC1` across the screens: 1, 0.9
# `CCN(CC)C(C(=O)NC1CCCCC1)c1ccc(Cl)cc1` (stereo not given) across the screens: 1.2, 1.9
# `CC(C)C(C(=O)Nc1nc(-c2ccc(Br)cc2)cs1)N1C(=O)c2ccccc2C1=O` (stereo not given) across the screens: 1.1, 0.72
# `Cc1c(CNCc2ccc(F)cc2)c(C(=O)O)c(C)n1Cc1ccccc1` across the screens: 1.1, 1.7
# `Cc1ccc(-c2nc(C#N)c(NCc3ccccc3)o2)cc1` across the screens: 0.78, -2.8

# New compounds follow:
SMILES,CBX7 AlphaScr,CBX7 AlphaScr z-score
COCCCNC(=O)c1ccc2c(c1)N(Cc1ccc(F)cc1)C(=O)c1ccccc1S2(=O)=O,1.1,1.6
COc1ccc(-c2csc(NC(=O)c3ccc(S(=O)(=O)N4CCCCC4)cc3)n2)c(OC)c1,0.85,-1.2
O=C(CCN1C(=O)COc2ccccc21)NCCc1ccccc1,0.98,-0.64
CCN(CCCNC(=O)CC1Oc2ccc(C)cc2NC1=O)Cc1ccccc1 (stereo not given),1,0.17
CCCCc1c(O)nc(SCCN2CCOCC2)n(-c2ccccc2)c1=O,0.71,-4.4
CC(NC(=O)c1cnn2c(C(F)(F)F)cc(-c3ccccc3)nc12)c1ccccc1 (stereo not given),1,0.27
CCC(=O)N1CCc2cc(S(=O)(=O)N3CCC(Cc4ccccc4)CC3)ccc21,1.3,1.2
Cc1ccc(-c2ccc(=O)n(CC(=O)NCCN(C)C)n2)cc1,1,0.09
CCOc1ccc(C2C(=O)N(C3CCCCCC3)CC(=O)N2Cc2ccccc2)cc1OC (stereo not given),0.88,-1.2
Cc1cc(OCc2nc(-c3ccccc3)no2)ccc1Br,1.1,1.3
CC1NCC[C@H](O)[C@@H]1C (stereo not given in full),0.97,-0.5
Cc1ccc2c(c1)N(CCC(=O)NCCCN1CCCC1)C(=O)C(C)O2 (stereo not given),0.96,-0.95
N#Cc1ccc(Cn2c(=O)n(CCc3c[nH]c4ccccc34)c(=O)c3cccnc32)cc1,0.84,-5.2
Cc1ccc2cccc(Oc3nc(C)nc4sc5c(c34)CCC5)c2n1,0.95,-0.062
CCN(CCNC(=O)c1csc2c1CCC(C)C2)c1ccccc1 (stereo not given),0.99,-0.29
Cc1cc(N2CC(C)CC(C)C2)nc2ccc(NC(=O)CCC(=O)NC3CCCC(C)C3C)cc12 (stereo not given),1.1,2.3
COc1ccc(NC(=O)c2sc3ncn(CC(=O)N4CCCCC4C)c(=O)c3c2C)cc1Cl (stereo not given),1,0.58
CC(=O)Nc1c(C(=O)Nc2cccc(F)c2)oc2ccccc12,1,0.2
CCN(CC)S(=O)(=O)c1ccc2c(c1)c(=O)c(C(=O)NCC1CCCO1)cn2C (stereo not given),1.2,2.3
CCSc1nnc(NC(=O)c2ccccc2Cl)s1,1,0.61
CCCCN(C)C(=O)c1oc2ccc(S(=O)(=O)N3CCCCCC3)cc2c1C,0.75,-2.7
COc1ccc(NC(=O)C2CC(c3cccc(OC)c3)=NO2)cc1 (stereo not given),0.99,-0.13
CC(C)CCNC(=O)c1cc2sc(Cl)cc2n1C,1,1.4
O=C(NCc1ccc(F)cc1)c1ccc2c(c1)N(Cc1ccccc1)C(=O)CS2,1,0.65
O=C(Nc1ccc2c(c1)OCCO2)c1cccc(S(=O)(=O)N2CCCCCC2)c1,0.77,-3.6
CCCCNC(=O)c1c[nH]c2ccc(S(=O)(=O)N(C)c3ccc(C)c(C)c3)cc2c1=O,1.1,0.62
O=C(Nc1c2c(nn1-c1cccc(Cl)c1)CS(=O)(=O)C2)c1ccc2c(c1)OCO2,1,0.074
CCn1c(COc2ccccc2C)nc2ccccc21,0.88,-2.2
Cn1c(-c2nonc2NC(=O)c2ccc(C(C)(C)C)cc2)nc2ccccc21,1.1,0.25
COc1ccc(C2CC(C(F)(F)F)n3ncc(C(=O)NCc4ccccc4Cl)c3N2)cc1OC (stereo not given),0.95,-0.047
CCc1ccc(NC(=O)C2CCCN(S(=O)(=O)c3cccnc3)C2)cc1 (stereo not given),0.99,-0.0084
CCOC(=O)C1CCCN(c2c(NCCN(C)C)c(=O)c2=O)C1 (stereo not given),1,0.61
Cc1ccc(C)c(Nc2nnc(-c3ccc(C)c(S(=O)(=O)N4CCCCC4)c3)c3ccccc23)c1,0.78,-4.1
COc1ccc(CCNC(=O)CC2Sc3ccccc3NC2=O)cc1OC (stereo not given),1,0.54
CCc1ccc(OCCCC(=O)NCCc2nc3ccccc3[nH]2)cc1,0.98,-0.19
COc1ccc(CNC(=O)c2cnn3c(C)c(Cc4cccc(Br)c4)c(C)nc23)cc1,0.95,-1.9
CCOc1ccc(N2CC(C(=O)NCCc3ccc(OC)c(OC)c3)CC2=O)cc1 (stereo not given),1,-0.021
Cc1ccc2c(c1)c1c3n2CCN(CC(O)CN2CCCCC2)C3CCC1 (stereo not given),0.82,-2
FC(F)(F)c1nc(Nc2cccc3ccccc23)sc1-c1ccc(Cl)cc1,1,0.16
CCc1nnc(NC(=O)c2ccc(S(=O)(=O)N3CCCCC3)cc2)o1,0.1*,-9.9*
Cc1cccc(NC(=O)Cn2ncc3c2-c2ccccc2OC3)n1,0.94,-2
COCCCNC(=O)CSc1nc(-c2ccc(C)cc2)[nH]c1-c1ccccc1,0.9,-1.8
CC(C)c1ccc(Nc2cc(C(=O)NCCCN3CCCC3=O)c3ccccc3n2)cc1,1.2,0.17
CCOC(=O)N1CCN(c2ccc3nnc(CCC(=O)Nc4ccc(C)cc4)n3n2)CC1,0.99,-0.36
COc1ccccc1CNC(=O)Cn1ncc2ccsc2c1=O,0.89,-1.4
CCOc1ccc(C2CC(=O)NC3=C2C(=O)CC(C)(C)C3)cc1Cl (stereo not given),0.98,-0.23
COc1ccc(NC(=O)c2sc3ncn(CC(=O)N4CCCC(C)C4)c(=O)c3c2C)c(OC)c1 (stereo not given),1.1,0.6
O=C(NCCN1CCOCC1)c1cc(=O)[nH]c2ccc(S(=O)(=O)N3CCCCCC3)cc12,1.1,1.4
COc1ccc(Nc2nnc(-c3ccc(C)cc3)c3ccccc23)cc1C(N)=O,0.74,-0.3
Cc1ccnc(NC(=O)Nc2ccc3c(c2)N(C)C(=O)CS3)c1,1,0.86
# New compounds follow:
SMILES,CBX7 AlphaScr,CBX7 AlphaScr z-score
CCOC(=O)c1ccc(NC(=O)CSc2nccn2-c2ccc(OC)cc2)cc1,0.98,-0.33
O=S(=O)(Nc1ccc(-c2cn3ccccc3n2)cc1)c1ccc(Br)cc1,0.9,-2.9
O=C(Nc1ccc(C(F)(F)F)cc1)C1(S(=O)(=O)c2ccc(Cl)cc2)CC1,1.1,0.19
CCN(CC)CCCNC(=O)Cn1ncc2c1-c1ccccc1OC2,0.95,-0.63
CCCCN(C)Cc1c(C)[nH]c2c(ccc3ccccc32)c1=O,1.1,2
CCCCn1c(C(C)NC(=O)c2ccc(F)cc2)nc2ccccc21 (stereo not given),0.96,-1.8
CC(C)(CC(=O)NCCc1ccc(Cl)cc1)CC1=NS(=O)(=O)c2ccccc2N1,0.96,-0.76

# Arranged by value in CBX7 AlphaScr z-score (low to high): 6 from the list above.
Compound	CBX7 AlphaScr z-score
CCCCn1c(C(C)NC(=O)c2ccc(F)cc2)nc2ccccc21 (stereo not given)	-1.8
CC(C)(CC(=O)NCCc1ccc(Cl)cc1)CC1=NS(=O)(=O)c2ccccc2N1	-0.76
CCN(CC)CCCNC(=O)Cn1ncc2c1-c1ccccc1OC2	-0.63
CCOC(=O)c1ccc(NC(=O)CSc2nccn2-c2ccc(OC)cc2)cc1	-0.33
O=C(Nc1ccc(C(F)(F)F)cc1)C1(S(=O)(=O)c2ccc(Cl)cc2)CC1	0.19
CCCCN(C)Cc1c(C)[nH]c2c(ccc3ccccc32)c1=O	2
